Source: PubChem (SRMLSC)
H5N1 CPE: antiviral screen in MDCK cells, H5N1 avian flu | cytopathic effect, luminescence, 72 h; active compounds read high; no value below 0 was filed and about half of the inactive calls have no number; reference of the scale not given here | inhibition, % at 50 µM | 96,000 tested, 0.07% active | AID 740; in the data active means inhibition above about 25%
An asterisk follows results filed as active; i = inactive. Only part of the results is shown; count on the stated rates, not on these rows.

structure	H5N1 CPE
CC(NC(=O)OC(C)(C)C)C(=O)N1CCCC1C(=O)NC(Cc1ccccc1)C(N)=O (stereo unspecified)	i
Cc1nc2scc(-c3cccs3)c2c(=O)[nH]1	3.2
COn1c(=S)[nH]c2ccccc2c1=O	0.2
O=C(Nc1ccccc1C(=O)N1CCCCC1)c1cccc(S(=O)(=O)N2CCOCC2)c1	0.3
Cc1cc(C(=O)NCc2ccccc2)no1	i
Cn1cnnc1SCCNS(=O)(=O)c1ccccc1	0.9
COc1ccc(S(=O)(=O)Nc2ccccc2)cc1OC	i
Cc1cc(C)c2cc(CN(Cc3nnnn3C3CCCCC3)CC3CCCO3)c(=O)[nH]c2c1 (stereo unspecified)	1.0
Cc1ccc(C(=O)N/C(=C/C=C/c2ccccc2)C(=O)NCc2ccco2)cc1	i
CCOC(=O)N/C(N)=N/c1nc2ccccc2s1	i
CCN1C(=O)/C(=C/N(C)c2ccccc2)OC1=S	i
C=CCSc1nc2c(c(=O)[nH]c(=O)n2C)n1C(C)C	i
CCSc1nc(-c2ccccc2)c(C#N)c(=O)[nH]1	i
COc1ccc(C2CC(=O)N3CN(Cc4ccco4)CSC3=C2C#N)cc1 (stereo unspecified)	0.5
COc1ccccc1C1N(c2cc(Cl)ccc2OC)C(=O)C2CCCN21 (stereo unspecified)	i
Cn1c(=O)c2c(ncn2CC(=O)N2CCCc3ccccc32)n(C)c1=O	i
c1ccc(-n2nnnc2SCc2cn3cccnc3n2)cc1	0.3
CCOC(=O)N1CCN(c2c(NCc3ccccn3)c(=O)c2=O)CC1	1.1
OC(COCc1ccco1)CN1CCN(C(c2ccccc2)c2ccccc2)CC1 (stereo unspecified)	i
O=C(CN1CCOCC1)Nc1ccc(Br)cn1	i
CSc1nc2ccc3nc(NC(=O)C4COc5ccccc5O4)sc3c2s1 (stereo unspecified)	5.2
CCCCn1c(O)c(C(C)=NCCN2CCCCC2)c(=O)[nH]c1=O	1.0
CCOC(=O)Cc1csc(NC(=O)CN(C)S(=O)(=O)c2cccc3cccnc23)n1	1.5
O=C(NCc1cccs1)c1noc2c1CCCCC2	i
COc1cccc(C2Nc3ccccc3C(=O)N2O)c1O (stereo unspecified)	0.6
CC(C)CC(NC(=O)C1CCCN1C(=O)OC(C)(C)C)C(=O)NCC(N)=O (stereo unspecified)	i
COc1ccc(-c2csc(N(Cc3ccccc3)C(=O)COc3ccc(Cl)cc3)n2)cc1	i
Cc1cccc(NC(=O)Nc2cccc(C#N)c2)n1	5.0
CN1CCN(/C=C2\SC(=S)NC2=O)CC1	i
CC(=O)Nc1ccc(OC(=O)N(C)c2ccccc2)cc1	i
Cc1ccccc1CS(=O)(=O)CCC(=O)NCCCN1CCOCC1	i
Cc1ccc(CNC(=O)c2ccc(CNc3c(N4CCCC4)c(=O)c3=O)cc2)cc1	0.8
Cn1nc(C(F)(F)F)c2cc(C(=O)Nc3ccc(Cl)cc3)sc21	0.7
Cc1snc2sc(C(=O)c3ccc(Br)cc3)c(N)c12	i
Cc1cc(C(=O)O)sc1C	0.3
COc1ccc2c(-c3ccccc3)cc(N3CCOCC3)nc2c1	0.1
COc1ccc(CCN(Cc2cccs2)S(=O)(=O)c2ccc(-n3cnnn3)c(OC)c2)cc1OC	0.7
CCN1/C(=C2/OC(=S)N(C)C2=O)Sc2ccccc21	1.4
Cc1ccnc2nc(C(=O)N3CCN(c4ccc(F)cc4)CC3)nn12	i
O=C(Nc1nc2ccccc2[nH]1)C1CC(=O)N(c2ccc3c(c2)OCCO3)C1 (stereo unspecified)	1.1
CN(C)c1ccc(C(=S)N2CCOCC2)cc1Br	0.4
Cc1ccc(S(=O)(=O)c2nc(C)c3c(n2)CCC3)cc1	0.5
CSc1c(-c2ccccc2)nc2ccc(Cl)cc2c1C(=O)O	0.4
Cn1c(=O)[nH]c(=O)c2c1nc(N1CCOCC1)n2CC(O)COc1ccc2ccccc2c1 (stereo unspecified)	1.0
c1nnnn1C12CC3CC(CC(C3)C1)C2	1.9
CCOc1ccccc1NC(=O)Nc1cccc(C(C)=O)c1	1.5
CC(C)(C)c1ccc(OCCNC(=O)c2ncn[nH]2)cc1	0.7
O=c1c2nnn(Cc3ccccc3)c2ncn1C/C=C/c1ccccc1	0.1
O=C(Nc1ccc2c(c1)OCO2)Nc1ccc(Br)cn1	i
O=C(NC1CCCC1)C1CC(=O)N(CCc2ccccc2)C1 (stereo unspecified)	0.3
Cn1c(CN2CCOCC2)nnc1SCC(=O)NC1CCCCC1	i
CC(c1ccccn1)N(CCN(C)C)C(=S)Nc1ccccc1F (stereo unspecified)	i
O=C(Nc1ccc(Cl)cc1)N(C1=NCCC1)c1ccc(OC(F)F)cc1	1.0
CC(C)C[C@@H](N)c1nnc(SCC(=O)c2ccc(Cl)cc2)o1	0.4
COC(=O)c1cc(Cl)c(NC(=O)/C=C/c2ccc(OC)c(OC)c2)cc1OC	i
CC(C)(C)c1ccc(S(=O)(=O)NC(Cc2ccccc2)C(=O)O)cc1 (stereo unspecified)	0.1
CC(C)SC1=NC(C)(C)C=C(/C=C/c2c(Cl)cccc2Cl)N1	i
CCn1cc(Br)c(C(=O)Nc2ccc(F)c(Cl)c2)n1	i
COc1ccc2nc(SCC(N)=O)[nH]c2c1	i
COC(=O)c1ccccc1S(=O)(=O)N(CCCN1CCOCC1)Cc1cccs1	i

Following part:
structure	H5N1 CPE
Cc1cc(C)cc(OCCCC(=O)O)c1	i
CC(=O)c1cnn(-c2cc(Oc3cccc(C)c3)ncn2)c1C	1.5
CC(C)c1[nH]nc2c1C(c1ccc(OC(=O)c3ccco3)cc1)C(C#N)=C(N)O2 (stereo unspecified)	i
O=C(c1ccc2c(=O)n(C3CCCC3)c(=S)[nH]c2c1)N1CCc2ccccc21	i
O=C(Nc1ccc2c(c1)oc1ccccc12)c1cccnc1	0.6
CCOC(=O)/C(=N\Nc1ccccc1)c1csc(Nc2ccc(C)cc2)n1	i
Cc1ccc(C(=O)NCCNC(=O)CN2CCCC2)cc1	0.3
CCOC(=O)N1CCN(C(=O)CSc2ncccn2)CC1	0.1
O=c1[nH]c(=O)n(C2CCCCCC2)c(O)c1C=NCCCN1CCOCC1	i
Cc1cccc(-n2c(N)cc(=O)[nH]c2=S)c1	1.1
CN(C)CCC(O)(c1ccccc1)c1ccccc1	i
Cc1ccc(C(c2nnnn2CC2CCCO2)N2CCN(c3cccc(C)c3C)CC2)cc1 (stereo unspecified)	i
COC(=O)C1CCN(C(=O)c2ccccc2NC(C)=O)CC1	0.5
CCN1CCN(c2cc(=O)n(C3CCCCC3)c(=O)[nH]2)CC1	0.9
CCc1nnc(NC(=O)CCc2ccc(C)o2)s1	1.2
O=C(Nc1cccc(F)c1)N1CC=C(c2ccc(Cl)cc2)CC1	i
Cn1cnc2c1c(=O)n(Cc1cccc(Br)c1)c(=O)n2C	1.7
Cc1csc(NC(=O)C2CCCN2C(=O)OCC(C)C)n1 (stereo unspecified)	0.1
Cn1c(Cn2cnc3ccccc32)nnc1SCC(=O)CC(=O)Nc1ccccc1	0.6
Nc1c(C(=O)Nc2ccccc2)sc2nc3c(c(-c4ccco4)c12)CCC3	0.5
Cc1cccc(N2CCN(C(=O)C3CCN(S(=O)(=O)c4cccnc4)CC3)CC2)c1C	4.5
COc1ccc(NC(C)=O)cc1NC(=O)CSc1nc2ncccc2[nH]1	i
COc1ccc(-c2ccc(=O)n(CC(=O)Nc3ccc(C(=O)NC4CC4)cc3)n2)cc1OC	0.0
O=C(c1ccccc1)N1CCN(c2ccccc2F)CC1	0.6
O=C(OCc1ccccc1F)c1ccc2c(c1)OCCO2	1.9
O=C(Cn1cnc2c(cnn2-c2ccccc2Cl)c1=O)N1CCc2ccccc21	i
O=S(=O)(Nc1cccc(C(F)(F)F)c1)c1cccnc1	i
CCn1c(CCCNC(=O)c2cccs2)nc2ccccc21	2.6
O=C1CCn2nc(-c3ccc(Cl)cc3)cc2N1	0.5
Oc1[nH]c2ccccc2c1OCc1ccncc1	0.4
O=C(NC1CCCC1)C(c1ccncc1)N(Cc1ccccc1)C(=O)Cc1cccs1 (stereo unspecified)	0.5
O=C(O)c1c(F)c(F)cc2ccccc12	0.2
CCCCCCc1cc2cc(-c3nnc(-c4ccccc4OC)o3)c(=O)oc2cc1O	i
Cc1cc2oc(C(=O)NCc3ccncc3)c(C)c2cc1C	i
CC(=O)Cc1nsc(NC(=O)c2cccs2)n1	0.0
Clc1ccc(Nc2nc(NCCN3CCOCC3)nc(N3CCOCC3)n2)cc1	i
CC1CCN(c2nc3c(c(=O)[nH]c(=O)n3C)n2Cc2ccccc2Cl)CC1	1.1
Cc1cc(NCc2ccccc2Cl)n2nnnc2n1	i
Cn1c(C(=O)N2CCN(Cc3ccccc3)CC2)cc2c(=O)n(C)c3ccccc3c21	1.2
Cc1nn(C)c(Oc2ccc(Cl)cc2)c1C=O	i
CCC(=O)N(Cc1cc2c(C)cc(C)cc2[nH]c1=O)C1CCCCC1	i
Cc1ccc(C(=O)Oc2ccc3c(c2)ncn3C)cc1	0.5
Cc1csc(C2=C(O)CN(CCc3ccccc3)C2=N)n1	i
Nc1nc(-c2ccc(Br)s2)c(Br)s1	i
CCOc1c2ccc(C(=O)NCc3cc(C(F)(F)F)cc(C(F)(F)F)c3)cc2nn1C	i
CC(C)N(C(=O)CSc1nn2c(=O)c(C(C)(C)C)nnc2s1)c1ccccc1	2.4
CC(NCc1ccc(Cl)cc1Cl)C(O)c1ccccc1 (stereo unspecified)	i
CCc1c(O)nc(SCC(=O)NC(C)(C)C)n(-c2ccccc2)c1=O	i
c1ccc(-c2noc(CSc3nnnn3C3CCCCC3)n2)cc1	i
Cc1cccc(NC(=O)CN(C)S(=O)(=O)c2ccccc2)n1	i
COc1ccc(OC)c(S(=O)(=O)Nc2ccccc2C)c1	0.4
Cc1cc(Cl)ccc1N=c1ssnc1Cl	2.1
CCN(CC)C(=O)CN1C(=O)C2(OCC(C)(c3ccccc3)CO2)c2ccccc21 (stereo unspecified)	i
CCNC(=S)NC1CC2CCC(C1)N2Cc1ccccc1 (stereo unspecified)	i
N#C/C(=C\c1cccs1)Sc1nc2ccccc2s1	i
COc1ccc(S(=O)(=O)N2CCCCC2C(=O)O)cc1OC (stereo unspecified)	0.6
CCc1nc(N2CCN(C(=O)c3ccco3)CC2)c2oc3ccccc3c2n1	0.1
O=C(NO)c1cc(OCC(F)(F)F)ccc1OCC(F)(F)F	0.7
Cc1ccc2c(c1)C1CN(C)CCC1N2C(=O)c1ccc(Br)o1 (stereo unspecified)	i
CC1CC(C)CN(S(=O)(=O)c2ccc(C(=O)N3CCN(c4ccccc4)CC3)cc2)C1 (stereo unspecified)	i

(more compounds)
structure	H5N1 CPE
CCc1ccccc1NC(=O)CSc1nnc([C@H](CCSC)NC(=O)OC(C)(C)C)o1	i
CCCn1cnc2c(sc3nc4c(cc32)CSC(C)(C)C4)c1=O	3.2
O=C(O)CC(c1ccccc1)n1cnnn1 (stereo unspecified)	0.4
O=C(COc1ccccc1Cl)N1CCN(c2ccc([N+](=O)[O-])c(N3CCCCC3)c2)CC1	2.6
O=C(CCSc1nc(-c2ccco2)cc(C(F)(F)F)n1)NCCc1ccccc1	i
Cc1cc(N(C(=O)c2ccco2)C(C(=O)NC2CCCCC2)c2ccccc2)ccc1-n1cnnn1 (stereo unspecified)	i
O=C(O)CCCc1nc2ccccc2s1	i
COc1ccc(CNC(=O)CN(C(=O)c2ccc(CN3CCOCC3)o2)C2CCCC2)cc1	i
CC(=O)N1CCc2cc(S(=O)(=O)NC(C(=O)Nc3nc(C)cs3)C(C)C)ccc21 (stereo unspecified)	1.2
CCN(CC)c1ccc2cc(-c3nc4ccccc4n3C)c(=O)oc2c1	i
O=C(Nc1cccc2ccccc12)c1ccc(Br)o1	i
COCc1[nH]nc2c1C(c1ccc(OC)c(OC)c1)C(C#N)=C(N)O2 (stereo unspecified)	0.1
Cn1c(=O)c2c(nc(Br)n2CCSc2nnnn2-c2ccccc2)n(C)c1=O	4.1
CC(Oc1ccccc1)C(=O)Nc1ccccc1F (stereo unspecified)	i
C/C(=N\NC(=O)Cc1cccn1C)c1cccc2ccccc12	3.1
COc1ccc(S(=O)(=O)N2CN(Cc3ccco3)c3nc4ccccc4nc32)cc1	2.3
Cc1ccnc(NC(=O)c2ccc(NC(=O)c3ccco3)cc2)c1	i
CC(C)(C)C(=O)Nc1nnc(SCC(=O)NCc2cccs2)s1	1.2
COc1ccccc1N1CCN(C(=O)CN(Cc2ccccc2)S(C)(=O)=O)CC1	0.4
CCOC(=O)N1CCN(c2c(-c3ccc(C)cc3)c(=O)c2=O)CC1	1.2
Cn1c(=O)c2c(nc(OCc3ccccc3)n2C)n(C)c1=O	0.6
CC(=O)NC(C(=O)NCC(N)=O)C(C)C (stereo unspecified)	0.8
O=C(CN1C(=O)CSc2ccccc21)Nc1ccccc1C(=O)N1CCOCC1	i
CCOc1ccc(CCNC(=O)C2CCCN(C(=O)N(C)C)C2)cc1OCC (stereo unspecified)	i

Laid out differently: results already given.
O=C(NO)c1cc(OCC(F)(F)F)ccc1OCC(F)(F)F
  H5N1 CPE: 0.7
Cc1ccc2c(c1)C1CN(C)CCC1N2C(=O)c1ccc(Br)o1 (stereo unspecified)
  H5N1 CPE: i
CC1CC(C)CN(S(=O)(=O)c2ccc(C(=O)N3CCN(c4ccccc4)CC3)cc2)C1 (stereo unspecified)
  H5N1 CPE: i
CCc1ccccc1NC(=O)CSc1nnc([C@H](CCSC)NC(=O)OC(C)(C)C)o1
  H5N1 CPE: i
